FEN1 inh: blocks human flap endonuclease 1. Potency, µM (highest dose often 114 µM), for the others: at the top dose activity change, negative = inhibition, most hits filed as inhibitors. 390,000 compounds, 0.35% hits. Recombinant FEN1 flap cleavage, fluorescence, 15 min. P39748; active means well fitted inhibition curve with a large enough effect; inconclusive means small, poorly fitted or top-dose-only effect; inactive means no such curve, though single readings can be large or run the other way; further: nearly all actives have a fitted effect of over 65% in size
Target sequence (P39748 whole entry, looked up): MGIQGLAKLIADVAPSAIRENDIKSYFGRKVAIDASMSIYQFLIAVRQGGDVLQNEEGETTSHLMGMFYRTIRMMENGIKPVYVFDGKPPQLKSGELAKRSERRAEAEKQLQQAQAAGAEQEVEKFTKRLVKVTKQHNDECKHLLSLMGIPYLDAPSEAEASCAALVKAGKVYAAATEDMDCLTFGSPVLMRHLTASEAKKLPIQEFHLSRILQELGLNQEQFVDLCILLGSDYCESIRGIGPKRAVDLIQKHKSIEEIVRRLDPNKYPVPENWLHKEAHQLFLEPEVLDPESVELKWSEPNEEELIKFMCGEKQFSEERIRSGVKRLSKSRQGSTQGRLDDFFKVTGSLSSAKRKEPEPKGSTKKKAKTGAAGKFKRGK
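Recombinant FEN1 (10 nM) was preincubated with pin-transferred compounds for 15 min at room temperature, then flap DNA substrate (50 nM final) was added. Plates were read at 0 and 15 min, and normalized concentration–response data were fitted to a four-parameter Hill equation.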
Active calls of the source: *; ? = inconclusive; & = joins results of further samples; [ ] = another dose, or the depositor's remark. On the % scale 0 is the no-effect control and ±100 the full control effect; potency means the concentration at half of the fitted maximal effect. A portion of the library, and most or all hits are left out here.

SMILES	FEN1 inh
O=C(NCC(=O)N1CCN(S(=O)(=O)c2c(F)cccc2F)CC1)c1ccccc1F	6%
CN(C)/C=C/c1onc(-c2ccccc2Cl)c1C#N	-4%
O=C(Oc1ccc(C(=S)N2CCOCC2)cc1)c1cccc([N+](=O)[O-])c1	14%
Cn1c(=O)c2c(ncn2CC(=O)N/N=C/C=C/c2ccccc2[N+](=O)[O-])n(C)c1=O	-2%
CC(Sc1n[nH]c(N)n1)C(=O)Nc1ccccc1-c1ccccc1 (centres undefined)	-3%
COc1ccc2c(-c3ccccc3)cc(SCC(=O)N(C)C3CCS(=O)(=O)C3)nc2c1 (centres undefined)	3%
Cc1cc(-c2n[nH]c(=S)n2CC(C)C)cs1	2%
Cc1cccc(C)c1OCc1cc(C(=O)N2CCC[C@H]2C(N)=O)no1	2%
Cc1ccc(CSc2nc3ccccc3cc2C=O)cc1	-18%
COc1ccc(C(=O)C2CCCN(Cc3ccc(C#CCCO)cc3)C2)c(OC)c1 (centres undefined)	-9%
O=C(Nc1ccc(Cl)c(Cl)c1)Nc1nnc(CC2=CCCCC2)s1	-3%
COC(OC)c1nc(SCC(=O)Nc2cccc(Cl)c2)ncc1C(=O)O	0%
C/C(=N\OC(=O)c1ccc(F)cc1)c1nccs1	4%
Cc1cc(Cn2ccnc2)c(C)cc1Cn1ccnc1	-13%
O=C(Cn1cnc2cc([N+](=O)[O-])ccc2c1=O)NC1CCS(=O)(=O)C1 (centres undefined)	-17%
C(=C\c1ccccc1)/CN1CCN(C(c2ccccc2)c2ccccc2)CC1	?
COC(=O)Cc1c(O)ccn(Cc2cccc3ccccc23)c1=O	-3%
COC(=O)c1cccc(NC(=O)CSc2nnc(C3CC3)n2C)c1	4%
O=C(CCCn1c(=S)[nH]c2ccsc2c1=O)NCCc1ccccc1	-13%
COc1ccc(OC)c(NC(=O)[C@@H]2CCCN2C(=O)c2cccs2)c1	2%
COC(=O)c1ccccc1S(=O)(=O)N(Cc1cc2ccc(OC)cc2[nH]c1=O)CC1CCCO1 (centres undefined)	4%
CC1/C(=N/O)CC(c2ccccc2)N(C)C1c1ccccc1 (centres undefined)	-6%
CC1CN(c2snnc2C=C2C(=O)OC(C)(C)OC2=O)CC(C)O1 (centres undefined)	-5%
Cc1nnc2ccc(-c3cccc(NC(=O)c4ccc(Cl)nc4)c3)nn12	5%
CC1c2[nH]c3ccccc3c2CCN1S(C)(=O)=O (centres undefined)	4%
Cc1cccc(N2CCN(C(=O)CCC(=O)N3Cc4ccccc4Oc4ncccc43)CC2)c1C	-17%
Cc1nc2ccc(NS(=O)(=O)c3ccc(F)c(C)c3)cc2[nH]1	5%
O=c1cc(-c2cccc(Cl)c2)oc2cccc(O)c12	-16%&-13%
Cc1ccc(/C=N/NC(=O)CSc2ccccn2)o1	-5%
O=C(NNc1ccccc1F)c1ccccc1	-1%
CN=c1sc2ccccc2n1CC(O)c1ccccc1 (centres undefined)	-2%
COc1ccccc1CNC(=O)c1ccc(S(=O)(=O)N2CCCC2)cc1	-19%
O=C(C(=O)N1CCN(C(=O)c2ccco2)CC1)c1c[nH]c2ccccc12	-4%
COc1ccccc1Nc1nc(N)nc(CN2CCN(Cc3ccccc3)CC2)n1	-3%
CCOc1c(Br)cc(/C=C2/SC(=O)N(CC(=O)N3CCCC3)C2=O)cc1OC	-1%
O=C(Nc1ccc(NC(=O)C2CC2)nc1)c1cccnc1	-11%
COc1ccc(/C=C/C(=O)NC(=S)NNC(=O)[C@H]2C[C@@H]2c2ccccc2)cc1OC	2%
CN1C2=NCCN2C(=O)c2ccccc21	-11%
O=C1CCCN1CCC1CCN(C2CC(=O)N(c3ccc(Cl)cc3)C2=O)CC1 (centres undefined)	1%
COc1ccc(C2(CNC(C)=O)CCCC2)cc1OC	0%
CSc1nncc(/C(C)=N\Nc2ccccc2C)n1	-4%
CCN(c1ccccc1)S(=O)(=O)c1cccc(C(=O)NCc2ccccn2)c1	-2%
COc1ccc(OC)c2c(C)cc(N3CCN(C(=O)c4ccc(Cl)cc4)CC3)nc12	-20%
NC(=O)C1CCCN(C(=O)c2ccc(Cl)cc2)C1 (centres undefined)	-1%
Cn1ncc2c(NNC(=O)Cc3cccc4ccccc34)ncnc21	-1%
CC(C)(C)n1nnnc1C(c1ccc(F)cc1)N1CCC(C(N)=O)CC1 (centres undefined)	-5%
COCc1ccc([C@@H]2C[C@H]3CN(Cc4cccnc4)C(=O)[C@]34CCCN24)o1	19%
Cc1ccnc(NC(=O)CC(c2ccccc2)c2ccccc2)n1	20%
CN(C)CCCN(C(=O)COc1ccc(Cl)cc1)c1nc2c(F)cccc2s1	-3%
CCOC(=O)c1ccc(Nc2nc(N3CCOCC3)nc(N3CCOCC3)n2)cc1	-9%
COc1cc(NC(=O)CSCC(=O)Nc2cccc(C(F)(F)F)c2)c(Cl)cc1Cl	-21%
CC(=O)c1ccc(-n2nncc2-c2ccc([N+](=O)[O-])cc2)cc1	-2%
CCOc1cc(CNCc2cccs2)cc(Br)c1OCC	-20%
COc1ccc(-n2ncc3c2CC(C)(C)CC3NC(=O)c2cn[nH]c2)cc1 (centres undefined)	-2%
CCC(=O)c1ccc(N2CCCC2)c(F)c1	2%
Cc1ccc(COC(=O)CCN=C2NS(=O)(=O)c3ccccc32)cc1	3%
CCOC1=NN(c2ncc(C(F)(F)F)cc2Cl)C(=O)/C1=C/N(C)C	7%
COc1cc(C(=O)OCC(=O)NC(=O)C2CCCCC2)ccc1OC(F)F	16%
Cc1cc(C)c2nc(Cl)c(C3NC(=O)c4ccccc4N3)cc2c1 (centres undefined)	16%
O=S1(=O)CC2NC(=S)N(c3cccc(Br)c3)C2C1 (centres undefined)	20%
Continuation.
SMILES	FEN1 inh
CONc1nc2nonc2nc1NOC	-5%
COc1ccc(C2=C(c3ccc([N+](=O)[O-])cc3)C(=O)OC2)cc1	7%
Cc1ccccc1NC(=O)OCc1cn(-c2ccc(Cl)cc2)nn1	-13%
O=C(CN1CCC(O)(c2ccc(F)cc2)CC1)NCc1ccc(F)cc1	-4%
CN(CC(=O)Nc1ccccc1C(F)(F)F)C(=O)c1ccc(-c2ccc(Cl)cc2)o1	-5%
CCOC(=O)C1CCCN(c2c(N3CCOCC3)c(=O)c2=O)C1 (centres undefined)	-17%
O=S(=O)(NC1CCCC1)c1cc(F)ccc1F	16%
Cc1ccn2cc(-c3ccc(Br)cc3)nc2c1	-17%
CC(=O)c1c(C)oc2ccc(O)c(CN3CCOCC3)c12	-3%
c1ccc(SCc2nc(-c3cccnc3)no2)cc1	3%
Cc1ccc(N2CC(C(=O)Nc3nnc(SCC(=O)Nc4cc(C)on4)s3)CC2=O)cc1 (centres undefined)	1%
CCN(CC)c1ccc(-c2nc3cnccc3n2C)cc1	11%
CC1Oc2ccccc2N(CC(=O)N2CCCc3ccccc32)C1=O (centres undefined)	-7%
Cc1cc(NC(=O)Cn2ccsc2=N)c([N+](=O)[O-])cc1C	-4%
NC(N)=NS(=O)(=O)c1ccc(NC(=S)NC(=O)c2ccncc2)cc1	-10%
Cc1ccc(NC(=O)c2c([N+](=O)[O-])c(C(C)(C)C)nn2C)cc1	-1%
CC(C)(C)OC(=O)N1Cc2ccccc2C[C@H]1C(=O)NCC(=O)Nc1ccc2c(c1)OCCO2	-2%
COCc1ccc(C(=O)N(C)CC2CCCN(CCc3ccc(Cl)cc3)C2)o1 (centres undefined)	3%
NS(=O)(=O)c1ccc(NC(=S)NC(=O)c2cccc(Br)c2)cc1	-2%
Cn1nnc2cc(C(=O)Nc3cccnc3)ccc21	-3%

Pulled by structure from the entries so far, 2 records:
SMILES	FEN1 inh
COc1ccc(C2=C(c3ccc([N+](=O)[O-])cc3)C(=O)OC2)cc1	7%
O=S(=O)(NC1CCCC1)c1cc(F)ccc1F	16%

Back to the main list; the three compounds before the break are reprinted first.
SMILES	FEN1 inh
COCc1ccc(C(=O)N(C)CC2CCCN(CCc3ccc(Cl)cc3)C2)o1 (centres undefined)	3%
NS(=O)(=O)c1ccc(NC(=S)NC(=O)c2cccc(Br)c2)cc1	-2%
Cn1nnc2cc(C(=O)Nc3cccnc3)ccc21	-3%
CSc1nc2c(C)c(C)c(C)c(C)c2[nH]1	-2%
Cc1cc(C)n2nc(SC3CCCCN(C(=O)c4ccc(F)cc4)C3=O)nc2n1 (centres undefined)	43%[activator]
COc1ccc(OC)c(S(=O)(=O)Nc2cc(OC)c(Cl)cc2OC)c1	-14%
CC1CC(C)(C)CC2(C1)NC(=O)N(CC(=O)NC1CCCc3ccccc31)C2=O (centres undefined)	-1%
COc1ccc(C(=O)NCCCNC(=O)c2cnccn2)cc1	-8%
CCc1ccccc1N(CC(=O)NCc1ccccc1)C(=O)CCC(=O)Nc1ccccn1	24%
CC1CCCCN1C(=O)COC(=O)c1cc([N+](=O)[O-])ccc1N1CCOCC1 (centres undefined)	6%
COc1ccc(OC)c(C2CC(=O)Nc3c2c(=O)[nH]c2ncnn32)c1 (centres undefined)	1%&18%
Cn1cccc1C(=O)NC(=O)COC(=O)c1cc([N+](=O)[O-])ccc1Cl	0%
Cn1nc(C(F)(F)F)c(-c2ccc(F)cc2)c1NC(=O)c1cccnc1	20%
O=C(O)c1ccc(N/N=C/C=C/c2ccccc2)cc1	-8%
CCN(CCn1cccn1)C(=O)CCc1nnc(CCc2ccccc2OC)o1	-11%
O=C(NCCCn1ccnc1)c1cn(-c2ccccc2)nc1-c1ccccc1	-4%
COc1ccccc1Nc1nnc(SCC(=O)N2CC(=O)Nc3ccccc32)s1	-17%
Cc1ccc(S(=O)(=O)NCCN2CCOCC2)cc1C	-3%
Nc1nccc(/C=C/c2ccc(Cl)cc2)n1	-3%
Cc1ccc2[nH]c(C(=O)NN=C3CCCCC3)c(-c3ccccc3)c2c1	0%
COc1ccc(S(=O)(=O)N2CCCCCC2)cc1C(=O)OCC(=O)NC(N)=O	5%
COc1ccccc1N1CCN(/N=C\c2ccc(C)o2)CC1	-3%
Cc1c(NS(=O)(=O)c2ccccc2)cc(Cl)c(O)c1C	-3%

In a second layout: entries from further up
mol: CCN(CCn1cccn1)C(=O)CCc1nnc(CCc2ccccc2OC)o1
- FEN1 inh: -11%
mol: Cc1c(NS(=O)(=O)c2ccccc2)cc(Cl)c(O)c1C
- FEN1 inh: -3%
mol: Cc1ccc2[nH]c(C(=O)NN=C3CCCCC3)c(-c3ccccc3)c2c1
- FEN1 inh: 0%
mol: CC1CCCCN1C(=O)COC(=O)c1cc([N+](=O)[O-])ccc1N1CCOCC1 (centres undefined)
- FEN1 inh: 6%

Quoted from the listing:
Value for Cc1c(NS(=O)(=O)c2ccccc2)cc(Cl)c(O)c1C in FEN1 inh: -3%
Value for COc1ccccc1Nc1nnc(SCC(=O)N2CC(=O)Nc3ccccc32)s1 in FEN1 inh: -17%
Value for COc1ccc(OC)c(C2CC(=O)Nc3c2c(=O)[nH]c2ncnn32)c1 (centres undefined) in FEN1 inh: 1%&18%

(more compounds)
SMILES	FEN1 inh
COc1cc(C(=O)Nc2cc(-c3nc4cc(C)ccc4o3)ccc2C)cc(OC)c1OC	0%
NCCCCCCNS(=O)(=O)c1cccc2c(Cl)cccc12	-3%&5%
CC(C)Sc1nc2ccccc2n1CC(N)=O	1%
O=C(CCN1C(=O)c2ccccc2C1=O)NC(=S)Nc1ccccc1	0%
CCOc1ccc(S(=O)(=O)NC2CCCCCC2)cc1	-16%
COc1ccc(OC)c(C2C(C(=O)c3ccco3)=C(O)C(=O)N2CC2CCCO2)c1 (centres undefined)	1%
Cn1c(-c2ccc(F)cc2)cnc1NCc1ccc(F)cc1	6%
COC(=O)C1=COC(C)C2CN3CCc4c([nH]c5ccccc45)C3CC12 (centres undefined)	-13%
CCOc1ccc(NC(=O)Nc2cc(C)ccc2OC)cc1	7%
O=C(NCc1ccc(Cl)cc1)C(=O)NCC(c1ccco1)N1CCOCC1 (centres undefined)	-3%
CC(C)(C)C(=O)OCc1nc(-c2ccc(Cl)cc2)cs1	-4%
Cc1cccc2cc(CN(CCN3CCCC3)C(=O)NC3CCCCC3)c(=O)[nH]c12	15%
N#C/C(=C\c1c(N2CCCCCC2)nc2ccccn2c1=O)C(=O)NC1CCS(=O)(=O)C1 (centres undefined)	-1%
Cc1cccc(NS(=O)(=O)c2cc(C(=O)N3CCOCC3)ccc2Cl)c1	12%

Source: PubChem BioAssay (National Center for Advancing Translational Sciences (NCATS))
